VDR inh = Inhibitors of the vitamin D receptor (VDR): qHTS | VDR-SRC2-3 peptide fluorescence polarization, 2 h | Potency, µM, for inactives: max response, negative = inhibition, most hits filed as inhibitors | hit rate 0.93% among 400,000 | AID 504847, 2011; active = well fitted inhibition curve with a large enough effect; inconclusive = small, poorly fitted or top-dose-only effect, or another doubt; inactive = no such curve, though single readings can be large or run the other way; also: series mostly up to about 120 µM
Target sequence (P11473 whole entry, looked up): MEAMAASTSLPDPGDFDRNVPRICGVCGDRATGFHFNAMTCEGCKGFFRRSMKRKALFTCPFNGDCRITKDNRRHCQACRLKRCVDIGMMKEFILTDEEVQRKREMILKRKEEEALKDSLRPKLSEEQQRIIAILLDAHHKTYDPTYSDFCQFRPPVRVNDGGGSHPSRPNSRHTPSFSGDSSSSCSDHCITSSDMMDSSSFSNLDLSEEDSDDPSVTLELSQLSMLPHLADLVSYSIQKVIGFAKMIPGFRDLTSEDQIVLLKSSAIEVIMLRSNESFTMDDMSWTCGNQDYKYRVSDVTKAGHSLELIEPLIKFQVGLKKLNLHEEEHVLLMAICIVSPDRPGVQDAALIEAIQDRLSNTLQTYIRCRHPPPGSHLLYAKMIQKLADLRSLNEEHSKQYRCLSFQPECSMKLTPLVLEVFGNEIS
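FP read-out; VDR + SRC2-3 coactivator peptide; 23 nl compound by pintool; 2 h RT incubation; reagents held at 4 deg C, protected from light.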
Numbers without * were called inactive; ? = inconclusive; & = joins results of further samples. % is scaled to controls: 0 for no effect and ±100 for the full control effect; potency is read from the fitted curve at half-maximal effect.

SMILES	VDR inh
COc1cc(C(=O)N[C@H](C(=O)OCC(=O)NC2CCCCCC2)C(C)C)cc(OC)c1OC	1%
CN(CCCC(=O)N1CCCC(C(N)=O)C1)S(=O)(=O)c1ccc(F)cc1 (centres undefined)	3%
Cc1cccc(COCC(Cc2ccccc2)N2CCN(C(=O)c3cc(Cl)cc(Cl)c3)CCC2=O)c1 (centres undefined)	-19%
Cc1cccc(NC(=S)N(C)C2CCCCC2)c1	-6%
Cc1cc(C)c(C(N)=O)c(Nc2ccc(F)cc2)n1	11%
CC1CCN(C(=O)COC(=O)c2ccccc2NC(=O)c2ccco2)CC1	2%
Cc1cc(Cl)ccc1OCc1nc(-c2ccc(-n3cccc3)cc2)no1	-5%
Cc1cc(C)cc(OC(=O)c2cc(-c3ccc(Cl)cc3)on2)c1	9%
CCOC(=O)Cn1nnnc1C(CC)N(Cc1cc2ccc(C)cc2[nH]c1=O)C1CCCC1 (centres undefined)	-5%
CCn1c(=O)c(=O)n(CC)c2cc(N3CCCCC3)c(NC(=O)c3ccc(Cl)cc3)cc21	-4%
COC(=O)C(Cc1cnc(Cl)s1)(C(=O)OC)c1ccc(C(F)(F)F)cc1[N+](=O)[O-]	-8%
COc1ccc(OC)c(-c2nnc(-c3ccc(C)o3)o2)c1	8%
CC1CC(C)CN(c2nc(NCc3ccco3)nc(N)c2[N+](=O)[O-])C1 (centres undefined)	-4%
CCOCCCNC(=O)c1ccc(/C=C2\Oc3ccccc3N(C)C2=O)cc1	10%
Cn1cc(CC(=O)NCCCN2CCOCC2)c2ccccc21	8%
Cc1nc(C)c(C(=O)Nc2ccccc2-c2ccccc2)o1	-10%
CCOc1ccc(C(CCc2ccccc2)NC(=O)c2ccccc2)cc1OCC (centres undefined)	8%
O=C(NCCNc1ccc(Cl)cc1[N+](=O)[O-])c1ccccc1F	-8%
Cc1ccc(NC(=O)C(=O)NCCc2csc3nc(-c4ccccc4C)nn23)cc1Cl	14%
O=C(Cn1c(=O)oc2cc(S(=O)(=O)N3CCCC3)ccc21)NCc1ccccn1	6%
O=C(Nc1c(C(=O)Nc2ccc(F)cc2)oc2ccccc12)c1ccccc1F	-5%
C/C(=N\NC(=O)Cc1ccc(Cl)cc1)c1cccc(NC(=O)c2cccnc2)c1	7%
O=C(NC(=S)Nc1ccc(Br)cn1)c1cccnc1	-2%
N#Cc1ccc(C(=O)NCc2ccc3c(c2)CCN3C(=O)c2ccc(F)cc2)cc1	9%
CSc1ccccc1NC(=O)Nc1cccc(Cl)c1C	6%
O=C(CSc1nnc(-c2ccc(Br)o2)n1Cc1ccccc1)c1ccccc1F	-5%
Cc1cccc(NC(=O)CN(CC2CCCO2)C(=O)c2oc3ccccc3c2C)c1C (centres undefined)	-2%
COc1ccc(/C=N\NC(=O)c2ccccc2Br)cc1COc1ccc(F)cc1	-23%
Cc1nc(C(=O)NCCC(C)C)sc1C1(C)CC(c2cccc([N+](=O)[O-])c2)=NO1 (centres undefined)	-3%
O=C(NCCc1nnc2ccc(NCCCN3CCOCC3)nn12)c1ccccc1F	-7%
CCCCC(=O)Nc1ccnc(-c2cccnc2)n1	-7%
Cc1ccc(NC(=O)c2ccc(CSc3nnc(-c4ccncc4)n3C)cc2)cc1	-26%
CCOc1ccc(-c2nc(CNC(=O)NC3CCCCC3)c(C)o2)cc1	20%
COc1cccc(-n2c(Cc3cc(=O)[nH]c(=O)[nH]3)nnc2SCC(=O)NC2CCCCC2)c1	-18%
COc1ccc2c(COC(=O)CC3Sc4ccccc4NC3=O)cc(=O)oc2c1 (centres undefined)	-21%
CCOC(=O)CSc1nnc(-c2ccco2)n1-c1ccccc1	14%
CCn1cc(C(=O)NC(=S)Nc2ccccc2Br)cn1	15%
CCc1ccc(S(=O)(=O)Nc2cccc(-c3ccc(N4CCC(C)CC4)nn3)c2)s1	9%
Cc1c(OC(C)C(=O)O)ccc2c3c(c(=O)oc12)CCCC3 (centres undefined)	-7%
CC(C)(C)c1cc2cccnc2n1Cc1cccc(Cl)c1	-2%
COC(=O)c1sccc1NC(=O)c1ccc(C)s1	-2%
CCN(CC)C(=O)C1CCCN(C(=O)c2oc3ccc(C)cc3c2C)C1 (centres undefined)	3%
CCN(CC)C(=O)c1cc2c(=O)c3cc(F)ccc3oc2nc1C	11%
N#Cc1sc2nc(-c3cccs3)cc(-c3ccc(Cl)cc3)c2c1N	-4%
Cc1cccc(S(=O)(=O)Nc2ccc(-n3c(C)nc4ccccc4c3=O)cc2)c1	1%
Cc1ccc2[nH]c(=O)c(CN(Cc3cccs3)C(=S)NCc3ccco3)cc2c1	-14%
COc1ccc(NC(=S)N2CCC(C(=O)N3CCCCCC3)CC2)cc1	4%
COC(=O)C1CCN(S(=O)(=O)Cc2ccccc2)CC1	-20%
Cc1ccccc1NCCC(=O)Nc1ccc(Cl)cc1	-17%
Cc1cccc(-n2nnc(C(=O)NCc3ccccc3Cl)c2N)c1	6%
CCN1CCN(C(=O)CS(=O)(=O)Cc2nc(-c3ccccc3C)oc2C)CC1	-5%
O=C(COC(=O)/C=C/c1ccc(Cl)cc1Cl)NCc1ccco1	-19%
COc1ccc(NC(=O)CCN2C(=O)C3C4CCC(C4)C3C2=O)cc1 (centres undefined)	-22%
COC(=O)C1=C(C)NC(C)=C(C(=O)OC)C1c1ccc(OC(=O)c2oc3ccccc3c2C)c(OC)c1	-14%
COc1ccc(Cc2nc3ccccc3[nH]c2=O)cc1	0%&6%
CC(=O)Cc1nsc(NC(=O)c2ccc(COc3ccccc3C)o2)n1	13%
O=C(NCCCN1CCOCC1)C(=O)NCC1CCCO1 (centres undefined)	?
O=c1cc(CSc2nnc(-c3cccnc3)n2-c2ccccc2F)nc2sccn12	0%
CCCCN(CC)Cc1ccc(CNS(=O)(=O)c2cc3c(cc2Cl)NC(=O)CO3)o1	1%
Cc1cc(C(=O)NNC(=O)CCCOc2ccccc2)c(C)o1	-7%

The list continues:
SMILES	VDR inh
O=C(COC(=O)c1ccc(Cl)nc1)NCc1cccs1	2%
Cc1cc2c(n1-c1ccc(Cl)cc1)CC(C)(C)CC2=O	-15%
Cc1cc(NC(=O)c2sc3ccccc3c2O)no1	-1%
COC(=O)Cn1c(O)c(N=NC(=O)c2ccc3c(c2)OCO3)c2ccccc21	3%
Cc1ccc(/C=N/NC(=O)CN2CCN(Cc3ccccc3)CC2)o1	-6%
Cc1ccc(OCc2nnc(SCc3cc(=O)[nH]c4ccccc34)n2-c2ccccc2)cc1	-26%
COc1ccc(C(=O)c2c3ccccc3[n+]([O-])n2CCC(N)=O)cc1	-5%
CCc1ccccc1C1C(=O)c2ccccc2C1=O	12%
Cc1cc(C)c(NC(=O)CCS(=O)(=O)c2cc3c(cc2Cl)NC(=O)CO3)c(C)c1	10%
Cc1ccc2cccc(Oc3ncnc4scc(-c5ccc(Cl)cc5)c34)c2n1	5%
O=C(CN1C(=O)C2C3C=CC(C3)C2C1=O)Nc1cccc(S(=O)(=O)N2CCCC2)c1 (centres undefined)	9%
O=S(=O)(Nc1cc(Cl)cc(Cl)c1)N1CCOCC1	22%
Cc1ccccc1NC(=O)Cc1nnc(SCC(=O)N2CCN(c3ccccc3)CC2)n1C	6%
Cc1cccnc1NC(=O)c1ccc(COc2ccccc2)o1	-3%
COc1ccc(OC)c2[nH]c(=O)c(CCNC(=O)c3ccc(S(=O)(=O)N4CCCC4)cc3)cc12	-13%
CCOC(=O)Cn1c(=O)oc2cc(S(=O)(=O)Nc3ccc(F)cc3)ccc21	-20%
Cc1ccc(-c2[nH]ncc2/C=N/n2c(C)nc3ccccc3c2=O)cc1	0%
Oc1ccc2ccccc2c1C=Nc1cc(C(F)(F)F)ccc1N1CCCC1	13%
CCOc1ccc(NC(=O)c2ccc(NS(=O)(=O)c3cccs3)cc2)cc1	-8%
Cc1ccc(NC(=O)C(C)SCc2nc3sc(C)c(C)c3c(=O)[nH]2)nc1 (centres undefined)	-4%
Nn1c(C2COc3ccccc3O2)n[nH]c1=S (centres undefined)	?
N#Cc1ccc(NC(=O)Nc2ccc(Oc3ccc(NC(=O)Nc4ccc(C#N)cc4)cc3)cc2)cc1	8%
CCCCN1CC[C@H]2C=CC[C@@H](C(=O)N3CCN(c4ccccc4)CC3)[C@H]2C1=O	6%
Cc1n[nH]c(=O)nc1N1CCN(c2ccccc2)CC1	-15%
Cc1nc2c(Br)cc(Br)cc2cc1O	9%
Cc1ccc(Sc2ccccc2CN(C)C)c(N)c1	1%
COc1ccccc1OCc1ccc(C(=O)NCC2CCCO2)o1 (centres undefined)	9%
FC(F)Oc1ccc(-n2cc(-c3ccc(Cl)cc3)[n+]3c2CCCCC3)cc1	1%
c1ccc2[nH]c(NCCCN3CCOCC3)nc2c1	3%
CCc1ccc(CN(C)C(=O)C2CCC(=O)N(Cc3cccc(OC)c3)C2)nc1 (centres undefined)	-6%
CC(=O)Nc1ccc(C(=O)OCC(=O)N2CCN(C(=O)c3ccco3)CC2)cc1	4%
O=c1oc2ccccc2c(Nc2cccc3ccccc23)c1[N+](=O)[O-]	-2%
CCOC(=O)c1cnn(-c2ccc([N+](=O)[O-])cc2)c1N	-15%
C=CCNC(=O)c1ccc2c(=O)n(Cc3ccccc3OC)c(=S)[nH]c2c1	-7%
CCCOc1ccc(/C=N/Nc2cccc([N+](=O)[O-])c2)c(O)c1	-16%
CCCNC(=O)CCCN1C(=O)c2ccccc2Sc2ncccc21	28%
CCC(C(=O)NC1CCCC1)N(C(=O)Cn1nnc(-c2ccc(C)o2)n1)c1ccc(F)cc1 (centres undefined)	?
Cc1cn(CC(=O)NCC2CCCO2)c(=O)[nH]c1=O (centres undefined)	-18%
O=C(O)c1cc([N+](=O)[O-])c(NCCC2=CCCCC2)c([N+](=O)[O-])c1	?
CC(=O)N1c2ccc(S(=O)(=O)NCC3CCC(C(=O)NC4CCC(C)CC4)CC3)cc2CC1C (centres undefined)	-8%
Cc1ccc(-c2csc3ncn(CC(=O)NCC(c4ccco4)N4CCCC4)c(=O)c23)cc1 (centres undefined)	1%
CN(CCc1ccccn1)C(=O)c1cc(COc2ccc(F)cc2F)on1	11%
O=C(Nc1ccccc1-c1ccccc1NC(=O)c1ccco1)c1ccco1	18%
Cc1ccccc1S(=O)(=O)Cc1ccc(C(=O)NCCCN2CCC(C)CC2)o1	-21%
O=C(NCCCNC(=O)c1c(Cl)cccc1Cl)c1c(Cl)cccc1Cl	-6%
Brc1ccc(-c2csc3ncnc(-n4nnc5ccccc54)c23)cc1	-3%
COc1ccc(-n2nc(C(=O)NCC(=O)NCC3COc4ccccc4O3)c3ccccc3c2=O)c(OC)c1 (centres undefined)	19%
N#C/C(=C\c1ccc(-c2cc(Cl)ccc2Cl)o1)C(=O)Nc1cccc2ncccc12	?
COc1cc(C(=O)N(Cc2ccccc2)c2cccc(C)c2)ccc1OC(F)F	-9%
O=C(COc1ccc(C(=O)NCCN2CCOCC2)cc1)Nc1cccc(C(F)(F)F)c1	-4%
CC1CN(c2oc(COc3ccc(Cl)cc3Cl)nc2C#N)CC(C)O1 (centres undefined)	10%
CCOC(=O)C(Cc1ccc(NC(=O)/C(=C\c2ccccc2)NC(=O)c2ccccc2)cc1)N1C(=O)c2ccccc2C1=O (centres undefined)	-12%
O=C(NC(=S)NC1CCC(O)CC1)c1ccco1 (centres undefined)	-1%
CCCC(c1nnnn1CCOC)N1CCN(c2nc3ccccc3s2)CC1 (centres undefined)	?
COC(=O)c1nn(Cc2ccccc2)c(=O)c2ccccc12	-2%
CC(C)CNC(=O)NC(=O)COC(=O)c1cc(F)cc(F)c1	0%
CC(C)(C)N1C(=O)c2ccc(C(=O)Nc3cc(C(=O)O)cc(C(=O)O)c3)cc2C1=O	2%
Cc1cccc(N/N=C/c2ccncc2)c1	-2%
CC(C)NC(=O)[C@H]1N2C(=O)c3ccccc3C2SC1(C)C (some centres undefined)	-8%
CCN(CC(=O)Nc1cc(Cl)ccc1C)C(=O)CC1CCCC1	-17%
COc1ccccc1CNC(=O)COC(=O)c1ccccc1-c1ccccc1	12%

Gathered by group: those above containing an NH in an aromatic ring
SMILES	VDR inh
CCOC(=O)Cn1nnnc1C(CC)N(Cc1cc2ccc(C)cc2[nH]c1=O)C1CCCC1 (centres undefined)	-5%
COc1cccc(-n2c(Cc3cc(=O)[nH]c(=O)[nH]3)nnc2SCC(=O)NC2CCCCC2)c1	-18%
Cc1ccc2[nH]c(=O)c(CN(Cc3cccs3)C(=S)NCc3ccco3)cc2c1	-14%
COc1ccc(Cc2nc3ccccc3[nH]c2=O)cc1	0%&6%
Cc1ccc(OCc2nnc(SCc3cc(=O)[nH]c4ccccc34)n2-c2ccccc2)cc1	-26%
COc1ccc(OC)c2[nH]c(=O)c(CCNC(=O)c3ccc(S(=O)(=O)N4CCCC4)cc3)cc12	-13%
Cc1ccc(-c2[nH]ncc2/C=N/n2c(C)nc3ccccc3c2=O)cc1	0%
Cc1ccc(NC(=O)C(C)SCc2nc3sc(C)c(C)c3c(=O)[nH]2)nc1 (centres undefined)	-4%
Nn1c(C2COc3ccccc3O2)n[nH]c1=S (centres undefined)	?
Cc1n[nH]c(=O)nc1N1CCN(c2ccccc2)CC1	-15%
c1ccc2[nH]c(NCCCN3CCOCC3)nc2c1	3%
C=CCNC(=O)c1ccc2c(=O)n(Cc3ccccc3OC)c(=S)[nH]c2c1	-7%
Cc1cn(CC(=O)NCC2CCCO2)c(=O)[nH]c1=O (centres undefined)	-18%

These rows are one share of the data; the hit share may differ from the screen's.
